# Vaccinia stage – blocks a specific stage of Vaccinia orthopoxvirus infection, primary screen, cell-based, single point; Vaccinia-infected cells, mCherry/Venus stage reporter fluorescence; active compounds read low; some inactives read as strong as hits; activity change (mCherry), % (no concentration beside the values); hit rate 0.01% among 89,000; AID 1053133, 2014;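 active = mCherry past -33% and 40 or more points under the early reporter, replicates agreeing; inconclusive = past -33% without that gap or agreement; tested in A549 cells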;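 note: scaled between vehicle wells and reference inhibitor wells; 23 nL library stock went into each well; one replicate is shown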
# Vaccinia stage Venus – further read-out of Vaccinia stage, marked with its call; activity change (Venus), %; measured here: Venus reporter, other viral stage;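 negative = less Venus signal; first of two replicates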
# An asterisk follows results filed as active; ? = inconclusive; nt = no result given. A portion of the library; count on the stated rates, not on these rows.
smiles | Vaccinia stage | Vaccinia stage Venus
COc1ccc2c3c(n(C)c2c1)[C@H](CO)N(C(=O)c1ccncc1)CC31CCN(C(C)=O)CC1 | 16.3 | 1.1
C[C@@H]1CN([C@@H](C)CO)C(=O)Cc2cc(NC(=O)CCCCCC(=O)Nc3ccccc3N)ccc2O[C@H]1CN(C)S(=O)(=O)c1ccccc1 | 17.9 | 12.3
OC[C@@H]1[C@@H]2c3ccccc3NC[C@@H]2N1CC1CCOCC1 | 8.2 | 9.7
CC(C)C#Cc1cnc2c(c1)C(=O)N([C@@H](C)CO)C[C@@H](C)[C@H](CN(C)C(=O)c1ccc3c(c1)OCO3)O2 | 8.9 | -1.6
C[C@@H]1CN([C@H](C)CO)C(=O)Cc2cc(NC(=O)Nc3ccc4c(c3)OCO4)ccc2O[C@H]1CN(C)C(=O)Nc1ccc2c(c1)OCO2 | 21.9 | 3.6
COc1ccc2c3c([nH]c2c1)[C@H](CO)N(Cc1ccccc1OC)CC31CCN(S(=O)(=O)c2ccccc2)CC1 | 11.6 | 11.5
Cc1noc(C)c1NC(=O)N(C)C[C@@H]1Oc2ccc(NC(=O)Nc3ccc(C(F)(F)F)cc3)cc2C(=O)N([C@H](C)CO)C[C@H]1C | 8.1 | 14.0
C[C@@H]1CN([C@H](C)CO)S(=O)(=O)c2ccc(C#Cc3ccc(F)cc3)cc2O[C@H]1CN(C)C | ? | nt

smiles | Vaccinia stage | Vaccinia stage Venus
CCCNC(=O)Nc1ccc2c(c1)OC[C@H](C)N(C(=O)CC)C[C@@H](C)[C@@H](OC)CN(C)C2=O | 0.4 | 0.2
COc1ccc(S(=O)(=O)Nc2cccc3c2O[C@H](CN(C)Cc2ccc(-c4ccccc4)cc2)[C@H](C)CN([C@@H](C)CO)C3=O)cc1 | ? | nt
C[C@H]1CN([C@@H](C)CO)C(=O)c2cccc(NS(=O)(=O)c3ccccc3)c2O[C@H]1CN(C)CC1CC1 | 7.1 | 12.2
C[C@@H]1CN([C@H](C)CO)C(=O)c2cc(NC(=O)NC3CCCCC3)ccc2O[C@H]1CN(C)C(=O)Nc1ccc(C(F)(F)F)cc1 | 11.8 | 14.3
CCC(=O)Nc1ccc2c(c1)C(=O)N(C)[C@@H]1CC[C@@H](CC(=O)NC3Cc4ccccc4C3)O[C@@H]1CO2 | -2.3 | 10.2
CC=Cc1ccc2n(c1=O)C[C@H]1[C@H](CO)[C@@H](C(=O)NC3CCCC3)N(Cc3cccnc3)[C@@H]21 (mixture of isomers) | 10.7 | 8.2
CNC[C@@H]1Oc2ccc(NC(=O)CCCN(C)C)cc2C(=O)N([C@H](C)CO)C[C@H]1C | 20.0 | 9.6
CCC(=O)N(C)C[C@@H]1Oc2cc(C#C[C@H](C)O)ccc2S(=O)(=O)N([C@@H](C)CO)C[C@H]1C | 23.7 | 24.9

smiles | Vaccinia stage | Vaccinia stage Venus
O=C(c1cccnc1)N1CC(=O)N2[C@H](CO)[C@H](c3ccc(-c4ccc(F)cc4)cc3)[C@@H]2C1 | 10.0 | 2.6
CCC(=O)N1C[C@H](O)COC[C@H]2O[C@@H](CC(=O)NCc3cc(F)cc(F)c3)CC[C@@H]21 | -22.2 | -10.2
COc1ccc(NC(=O)Nc2ccc3c(c2)C(=O)N([C@H](C)CO)C[C@H](C)[C@H](CN(C)C(=O)Nc2c(C)noc2C)O3)cc1 | -0.4 | 0.5
O=C(C[C@H]1C=C[C@H](NC(=O)Nc2ccc3c(c2)OCO3)[C@@H](CO)O1)NCc1ccccc1 | 12.2 | 14.9
CCC(=O)N1C[C@@H]2[C@H](c3ccccc31)[C@H](CO)N2CC1CCCC1 | 8.9 | 19.5
CCCN(C)C[C@@H]1Oc2ncc(-c3ccccc3OC)cc2C(=O)N([C@@H](C)CO)C[C@@H]1C | -11.3 | -4.2
CCC(=O)N1C[C@H](C)[C@@H](OC)CN(C)C(=O)c2cc(NC(=O)Nc3cccc(F)c3)ccc2OC[C@H]1C | 12.4 | 4.2
O=S(=O)(c1ccccc1)N1CCCCN2[C@H](CO)[C@@H](c3ccc(-c4cncnc4)cc3)[C@@H]2C1 | 3.6 | -0.5

# Ordered by molar mass (high to low): some entries from above.
smiles | Vaccinia stage | Vaccinia stage Venus
CCC(=O)N1C[C@H](C)[C@@H](OC)CN(C)C(=O)c2cc(NC(=O)Nc3cccc(F)c3)ccc2OC[C@H]1C | 12.4 | 4.2
O=S(=O)(c1ccccc1)N1CCCCN2[C@H](CO)[C@@H](c3ccc(-c4cncnc4)cc3)[C@@H]2C1 | 3.6 | -0.5
CCC(=O)N(C)C[C@@H]1Oc2cc(C#C[C@H](C)O)ccc2S(=O)(=O)N([C@@H](C)CO)C[C@H]1C | 23.7 | 24.9
CCCN(C)C[C@@H]1Oc2ncc(-c3ccccc3OC)cc2C(=O)N([C@@H](C)CO)C[C@@H]1C | -11.3 | -4.2
CCC(=O)N1C[C@H](O)COC[C@H]2O[C@@H](CC(=O)NCc3cc(F)cc(F)c3)CC[C@@H]21 | -22.2 | -10.2
CCC(=O)N1C[C@@H]2[C@H](c3ccccc31)[C@H](CO)N2CC1CCCC1 | 8.9 | 19.5

# Further results
smiles | Vaccinia stage | Vaccinia stage Venus
Cc1ccc(S(=O)(=O)N(C)C[C@H]2Oc3ccc(NC(=O)Nc4ccc(F)cc4)cc3C(=O)N([C@@H](C)CO)C[C@H]2C)cc1 | -10.2 | -3.3
O=C(C[C@H]1CC[C@H](NC(=O)C2CCOCC2)[C@@H](CO)O1)NCC1CC1 | 22.3 | 19.0
O=C(Nc1ccc(F)cc1)N[C@H]1C=C[C@H](CC(=O)N2CCCCC2)O[C@@H]1CO | -8.9 | -0.1
CCCNC(=O)N1[C@H](CO)[C@H](c2ccccc2-c2cccc(OC)c2)[C@@H]1C#N | 7.7 | 7.4
O=C(CN1CCOCC1)NC[C@H]1N[C@H](CO)[C@@H]1c1ccc(-c2ccccc2)cc1 | -7.6 | -9.6
C[C@@H]1CN([C@H](C)CO)C(=O)c2cc(NC(=O)CCN3CCOCC3)ccc2O[C@@H]1CN(C)S(=O)(=O)c1ccc(F)cc1 | 13.3 | 4.6
C[C@H]1CN([C@@H](C)CO)C(=O)c2c(c3ccccc3n2C)-c2ccccc2CO[C@@H]1CN(C)Cc1ccncc1 | ? | nt
C[C@@H]1CN([C@H](C)CO)C(=O)c2cc(-c3ccccc3)cnc2O[C@@H]1CN(C)C(=O)Cc1cccnc1 | 13.0 | 7.1

smiles | Vaccinia stage | Vaccinia stage Venus
C[C@@H]1CN([C@H](C)CO)C(=O)c2cc(-c3cccnc3)cnc2O[C@H]1CN(C)Cc1ccc(Oc2ccccc2)cc1 | ? | nt
C[C@@H](O)C#Cc1ccc([C@@H]2[C@H](CO)N3CCCCN(CC4CC4)C[C@@H]23)cc1 | 24.0 | 10.3
C[C@H](O)C#Cc1cnc2c(c1)C(=O)N([C@@H](C)CO)C[C@H](C)[C@@H](CN(C)C(=O)Cc1ccccn1)O2 | 36.6 | 24.6
C[C@@H]1CN([C@@H](C)CO)C(=O)c2cc(NC(=O)Cc3ccccc3)ccc2O[C@@H](C)CCCCO[C@@H]1CN(C)C(=O)NC1CCCCC1 | -7.9 | -3.1
C=CCOC(=O)C1=C[C@@H](c2coc3ccccc3c2=O)C[C@@H](OCCCCO)O1 | -1.6 | -0.8
C[C@H]1CN([C@@H](C)CO)S(=O)(=O)c2ccc(C#CC3CCCC3)cc2O[C@@H]1CN(C)C(=O)Nc1cc(F)ccc1F | ? | nt
C[C@@H]1CN([C@H](C)CO)C(=O)c2cc(-c3ccc(C#N)cc3)cnc2O[C@@H]1CN(C)Cc1cccnc1 | 18.3 | 11.1
C[C@H]1CN([C@@H](C)CO)C(=O)CCCn2nncc2CO[C@H]1CN(C)S(=O)(=O)c1ccc2c(c1)OCCCO2 | 2.9 | 0.0

smiles | Vaccinia stage | Vaccinia stage Venus
COc1ccc(NC(=O)O[C@H](c2ccc(OCCO)cc2)[C@@H](C)CCO)cc1 | 16.2 | 5.2
Cc1noc(C)c1NC(=O)N1C[C@H](O)COC[C@@H]2O[C@@H](CC(=O)NCC3CCCCC3)CC[C@H]21 | 3.2 | 3.7
COc1cccc(S(=O)(=O)N2CCCCN3[C@H](C2)[C@@H](c2ccc(-c4cccnc4)cc2)[C@@H]3CO)c1 | -16.6 | -32.1
CC(=O)N(C)C[C@@H]1Oc2cc(-c3ccc(C#N)cc3)ccc2S(=O)(=O)N([C@H](C)CO)C[C@H]1C | 11.4 | 1.2
COc1ccc(S(=O)(=O)Nc2ccc3c(c2)C(=O)N([C@H](C)CO)C[C@H](C)[C@H](CN(C)C(=O)CCCN(C)C)OCCCC[C@@H](C)O3)cc1 | 27.5 | 19.2
Cc1noc(C)c1NC(=O)N(C)C[C@@H]1Oc2ccc(NC(=O)CCN3CCOCC3)cc2CC(=O)N([C@@H](C)CO)C[C@@H]1C | -7.8 | 1.1
C[C@@H]1CCCCO[C@H](CN(C)C(=O)CCCN(C)C)[C@H](C)CN([C@H](C)CO)C(=O)c2cc(NC(=O)NC3CCCCC3)ccc2O1 | 15.3 | 12.8
COCC#Cc1cnc2c(c1)C(=O)N([C@H](C)CO)C[C@@H](C)[C@@H](CN(C)C(=O)C1CCOCC1)O2 | 14.9 | 16.2

smiles | Vaccinia stage | Vaccinia stage Venus
OC[C@@H]1[C@@H](c2ccc(C#CC3(O)CCCC3)cc2)[C@@H]2CN(Cc3cccnc3)CCCCN12 | 5.5 | 0.0
O=C(C[C@@H]1CC[C@@H](NC(=O)Cc2ccccn2)[C@@H](CO)O1)NCCCN1CCOCC1 | 12.9 | 12.2
CCS(=O)(=O)N[C@H]1C=C[C@H](CC(=O)Nc2ccccc2)O[C@H]1CO | 12.1 | 13.8
O=C(NCC[C@H]1CC[C@@H](NC(=O)c2cccnc2)[C@H](CO)O1)Nc1ccc(Cl)cc1 | 17.5 | 14.5
Cc1ccc(S(=O)(=O)N(C)C[C@@H]2Oc3ccc(NC(=O)Cc4cn(C)c5ccccc45)cc3C(=O)N([C@@H](C)CO)C[C@@H]2C)cc1 | 7.8 | 18.8
Cc1cc(C(=O)Nc2ccc3c(c2)C(=O)N(C)[C@@H]2CC[C@H](CC(=O)NCc4ccc(-c5ccccc5)cc4)O[C@H]2CO3)no1 | ? | nt
C[C@H]1CN([C@@H](C)CO)C(=O)c2cccc(NC(=O)Nc3cccc4ccccc34)c2O[C@@H]1CN(C)S(=O)(=O)c1ccc(F)cc1 | -8.1 | 0.1
Cc1cccc(S(=O)(=O)N2C[C@H]3[C@@H](c4ccccc42)[C@H](CO)N3Cc2ccc3c(c2)OCO3)c1 | -33.3 | -29.8

smiles | Vaccinia stage | Vaccinia stage Venus
COc1cc(CN2CC3(CN(C(=O)c4cccnc4)C3)c3c([nH]c4cc(OC)ccc34)[C@H]2CO)cc(OC)c1 | 9.0 | 7.1
CN(C)C(=O)c1cccc(-c2ccccc2[C@@H]2[C@H](C#N)N(C(=O)C3CCCC3)[C@H]2CO)c1 | 8.1 | 15.6
CCC(=O)NC[C@H]1[C@@H](c2ccc(C3=CCCC3)cc2)[C@@H](CO)N1C(=O)CC | 2.0 | 4.0
C[C@@H]1CN([C@@H](C)CO)C(=O)c2cc(C#Cc3ccncc3)cnc2O[C@H]1CN(C)C(=O)CN(C)C | 22.0 | 9.0
CC(C)NC(=O)Nc1cccc2c1O[C@@H](CN(C)C(=O)Nc1cccc3ccccc13)[C@H](C)CN([C@H](C)CO)C2=O | 18.9 | 18.4
O=C(C[C@H]1C[C@H]2c3cc(NC(=O)Nc4ccccc4F)ccc3O[C@H]2[C@H](CO)O1)NCC1CC1 | 3.8 | 2.5
C[C@H]1CN([C@@H](C)CO)C(=O)c2cc(-c3cccc(F)c3)cnc2O[C@@H]1CN(C)C(=O)c1cccc(F)c1 | -2.3 | -4.9
CC(C)NC(=O)Nc1ccc2c(c1)C(=O)N([C@H](C)CO)C[C@H](C)[C@@H](CN(C)C(=O)Nc1ccc3c(c1)OCO3)OCCCC[C@H](C)O2 | 21.1 | 18.5

smiles | Vaccinia stage | Vaccinia stage Venus
CCC(=O)Nc1ccc2c(c1)OC[C@@H](C)N(Cc1ccncc1)C[C@H](C)[C@@H](OC)CN(C)C2=O | 12.1 | 6.6
CN(C)c1ccc2c(c1)[C@@H]1C[C@@H](CC(=O)O)O[C@@H](CO)[C@@H]1O2 | -4.9 | -4.4
C[C@@H]1CN([C@H](C)CO)C(=O)CCCn2nncc2CO[C@H]1CN(C)Cc1ccccc1 | 11.4 | 5.7
C/C=C/c1ccc([C@@H]2[C@H](CO)N(C(C)=O)C23CN(C(=O)NC2CCCC2)C3)cc1 | -1.8 | 4.1
C[C@H](CO)N1C[C@H](C)[C@@H](CN(C)C(=O)Cc2ccccc2)Oc2ncc(C3=CCCCC3)cc2C1=O | -8.8 | -7.8
CN(C)CC(=O)Nc1ccc2c(c1)[C@@H]1C[C@@H](CC(=O)N3CCc4ccccc4C3)O[C@H](CO)[C@@H]1O2 | -2.6 | -0.4
CCCN1[C@@H]2Cn3c(cccc3=O)[C@H]1[C@@H](C(=O)N1CCCCC1)[C@@H]2CO | 5.5 | 13.3
C[C@@H]1CN([C@H](C)CO)S(=O)(=O)c2ccc(C3=CCCCC3)cc2O[C@H]1CN(C)Cc1cncnc1 | 3.4 | 2.2

smiles | Vaccinia stage | Vaccinia stage Venus
C[C@H]1CN([C@@H](C)CO)C(=O)c2cccc(NC(=O)Nc3ccccc3)c2O[C@@H]1CN(C)S(=O)(=O)c1ccccc1 | -16.1 | -7.1
COc1ccc(CN(C)C[C@H]2OCCCC[C@@H](C)Oc3ccc(NS(=O)(=O)c4ccc(C)cc4)cc3C(=O)N([C@@H](C)CO)C[C@@H]2C)cc1 | 49.3 | 29.9
CCCC#Cc1cnc2c(c1)C(=O)N([C@@H](C)CO)C[C@@H](C)[C@@H](CN(C)C(=O)Nc1c(C)noc1C)O2 | 11.5 | 10.0
Cc1noc(C)c1NC(=O)N(C)C[C@@H]1Oc2ccc(NC(=O)CCCCCC(=O)Nc3ccccc3N)cc2CC(=O)N([C@H](C)CO)C[C@@H]1C | 9.1 | 7.7
O=C(Nc1ccccc1F)N[C@H]1CC[C@H](CCNC(=O)C2CCCCC2)O[C@@H]1CO | -4.3 | 1.8

# Screens as filed in PubChem.
